VDR inh: Inhibitors of the vitamin D receptor (VDR): qHTS; actives 0.93% (n = 400,000); VDR-SRC2-3 peptide fluorescence polarization, 2 h; Potency, µM, without a hit: max response, negative = inhibition, most hits filed as inhibitors; active means well fitted inhibition curve with a large enough effect; inconclusive means small, poorly fitted or top-dose-only effect, or another doubt; inactive means no such curve, though single readings can be large or run the other way; further: series mostly up to about 120 µM
Target sequence (P11473 whole entry, looked up): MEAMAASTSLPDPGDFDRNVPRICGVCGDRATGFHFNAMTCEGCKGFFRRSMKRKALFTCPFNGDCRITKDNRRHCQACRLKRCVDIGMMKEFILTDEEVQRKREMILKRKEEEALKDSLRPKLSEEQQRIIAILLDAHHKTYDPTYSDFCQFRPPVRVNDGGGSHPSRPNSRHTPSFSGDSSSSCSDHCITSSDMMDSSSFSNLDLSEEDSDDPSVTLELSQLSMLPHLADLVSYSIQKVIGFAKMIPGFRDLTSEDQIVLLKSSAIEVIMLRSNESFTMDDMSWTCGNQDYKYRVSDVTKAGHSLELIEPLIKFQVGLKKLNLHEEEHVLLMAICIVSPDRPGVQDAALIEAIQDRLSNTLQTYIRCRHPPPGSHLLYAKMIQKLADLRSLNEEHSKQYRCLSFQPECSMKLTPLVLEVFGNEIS
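Compounds are added to VDR with labelled SRC2-3 coactivator peptide and held 2 h at room temperature. Inhibition of the VDR–peptide interaction is then read as a change in fluorescence polarization.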
Starred values were filed as active, the others as inactive; ? = inconclusive; & = joins results of further samples; [ ] = remark or other dose. On the % scale 0 is the no-effect control and ±100 the full control effect; potency means the concentration at half of the fitted maximal effect.

no.	canonical_smiles	VDR inh
1	CCn1c(SCC(=O)Nc2nccc(C)n2)nc2ccccc21	-11%
2	CC(=O)NC(Cc1ccccc1)C(=O)OCC(=O)c1ccc(Cl)cc1 (stereo not drawn)	-8%
3	COc1nnc(-c2ccc(N3CCCCC3)c(NC(=O)c3ccc(Cl)cc3)c2)c2ccccc12	-14%
4	COc1ccc(N(CC(=O)NCc2ccco2)C(=O)CCC(=O)Nc2ccccn2)cc1	-9%
5	COc1ccccc1N(C)S(=O)(=O)c1ccc(C(=O)Nc2nc(C)c(C(C)=O)s2)cc1	1%
6	CC(=O)C1(O)CCC2C3CCC4CC(O)CCC4(C)C3C(=O)CC21C (stereo not drawn)	16%
7	Cc1cc(NC(=O)C(C)Oc2ccc(Cl)cc2Cl)no1 (stereo not drawn)	4%
8	O=C(COC(=O)C12CC3CC(CC(Br)(C3)C1)C2)Nc1cccnc1Cl	1%
9	Cc1ccccc1Nc1nnc(SCC(=O)NCc2cccs2)s1	6%
10	Cc1cccc(NS(=O)(=O)c2ccc(C)c(C(=O)NNC(=O)c3csc(N4CCOCC4)n3)c2)c1	15%
11	O=C(NCC1CCCO1)c1ccccn1 (stereo not drawn)	2%
12	COc1ccc(OCc2cc(C(=O)N(Cc3nccn3C)C(C)C)no2)c2ccccc12	-4%

Reprinted from the part before: 2 entries, then new ones.
no.	canonical_smiles	VDR inh
11	O=C(NCC1CCCO1)c1ccccn1 (stereo not drawn)	2%
12	COc1ccc(OCc2cc(C(=O)N(Cc3nccn3C)C(C)C)no2)c2ccccc12	-4%
13	COC(=O)COc1ccc(S(=O)(=O)NCc2ccc3c(c2)OCO3)cc1	-18%
14	O=C1COc2ccc(C(=O)COC(=O)CNC(=O)c3ccccc3)cc2N1	20%
15	COc1ccc(OC)c(S(=O)(=O)NCC(=O)O)c1	2%
16	Cc1cc(=O)n2c(C)n[nH]c2n1	5%
17	CCOC(=O)c1cnc2c(C)c(Cl)ccc2c1Nc1ccc(N2CCOCC2)cc1	-2%
18	COc1ccc(C(=O)CSc2nnn(-c3cccc(NC(C)=O)c3)n2)cc1	12%
19	CN(C)S(=O)(=O)c1cccc(NC(=O)CCc2nc3cc(S(=O)(=O)N4CCOCC4)ccc3n2C)c1	1%
20	O=C(C1CCCO1)N1CCN(C(=S)Nc2cccc(Cl)c2)CC1 (stereo not drawn)	-10%
21	O=C(CN1C2CCCC1CC(NC(=O)C1CCCCC1)C2)Nc1ccccc1 (stereo not drawn)	-5%
22	COc1cc(OC)c(OC)cc1/C=C/c1nc2cc3ccccc3cc2c(=O)n1-c1ccccc1Br	9%
23	COc1cc(/C=N/NC(=O)c2cc(C34CC5CC(CC(C5)C3)C4)[nH]n2)ccc1O	12%
24	Cc1nnc2n1NC(c1ccc(Cl)cc1)C(C(=O)N(C)C1CCCCC1)S2 (stereo not drawn)	6%

Sorted by the number under VDR inh (highest first): four from the list above.
no.	canonical_smiles	VDR inh
14	O=C1COc2ccc(C(=O)COC(=O)CNC(=O)c3ccccc3)cc2N1	20%
23	COc1cc(/C=N/NC(=O)c2cc(C34CC5CC(CC(C5)C3)C4)[nH]n2)ccc1O	12%
19	CN(C)S(=O)(=O)c1cccc(NC(=O)CCc2nc3cc(S(=O)(=O)N4CCOCC4)ccc3n2C)c1	1%
20	O=C(C1CCCO1)N1CCN(C(=S)Nc2cccc(Cl)c2)CC1 (stereo not drawn)	-10%

Among those listed so far, two have bromine.
no.	canonical_smiles	VDR inh
8	O=C(COC(=O)C12CC3CC(CC(Br)(C3)C1)C2)Nc1cccnc1Cl	1%
22	COc1cc(OC)c(OC)cc1/C=C/c1nc2cc3ccccc3cc2c(=O)n1-c1ccccc1Br	9%

(list continues)
no.	canonical_smiles	VDR inh
25	COC(=O)c1c(NC(=O)Cc2cccs2)sc(C(=O)N2CCCCC2)c1C	1%
26	Cc1sc(NC(=O)C2CCCCC2C(=O)O)c(C(N)=O)c1C (stereo not drawn)	49%[activator]
27	COc1ccc(NC(=O)N2CC3(CCN(C(=O)c4ccco4)CC3)C2)cc1	-17%
28	Brc1ccc(-c2csc(-c3c[nH]c4ccccc34)n2)cc1	7%
29	CCCCn1c(N)c(N(CC)C(=O)c2cc(S(=O)(=O)N3CCCCCC3)ccc2OC)c(=O)[nH]c1=O	19%
30	COc1ccc(CN2C(=O)C(CC(C)C)Nc3ncnc(N4CCN(c5ccccn5)CC4)c32)cc1 (stereo not drawn)	6%
31	Cc1ccc(NC(=O)c2ccco2)c(NC(=O)Cc2cccs2)c1	-6%
32	CCNc1c(NS(=O)(=O)c2ccc(OC)c(Cl)c2)c(=O)oc2ccccc12	-5%
33	CCOCCCn1c(=NC(C)=O)c(C(=O)OCC)cc2c(=O)n3ccccc3nc21	-4%&0%
34	Cc1ccc(N(C(=O)c2cnccn2)C(C(=O)NC2CCCCC2)c2ccc(O)cc2)cc1 (stereo not drawn)	-12%
35	Cc1nnc(NC(=O)Cn2nc(C)c3ccccc3c2=O)s1	1%
36	CC(C)c1ccc(NC(=S)Nc2ccc(OC(F)(F)F)cc2)cc1	0%
37	CCc1ccc(NC(=O)c2sc(-n3nc(C)c(Cc4ccc5c(c4)OCO5)c3C)nc2C)cc1	3%
38	COc1ccccc1/C=N/N1C(=O)C2C3C=CC(CC3)C2C1=O (stereo not drawn)	8%
39	O=C(O)/C(=C\c1cccs1)Sc1nnc(-c2ccc(F)cc2)o1	10%
40	O=C(NNC(=O)C1CC(=O)N(Cc2ccccc2)C1)c1ccc(Br)cc1 (stereo not drawn)	-15%
41	Cc1nc2ccccc2c(=O)n1NC(=O)CCC(=O)O	-9%
42	CN(C)C=NC(=O)c1ccc([N+](=O)[O-])c(CS(=O)(=O)c2ccc(Cl)cc2)c1	6%
43	Cc1cccc(N2CCN(C(=O)c3ccc(Cl)c(S(=O)(=O)NCc4ccco4)c3)CC2)c1C	-6%
44	Cc1ccc(S(=O)(=O)NCc2ccc(C(=O)NC3CCC(C)CC3)cc2)cc1 (stereo not drawn)	-2%
45	Cc1cc(N2CCN(C3CCCC3)CC2)n2c(nc3ccccc32)c1C#N	-4%
46	Cc1cccc(NC(=O)C2CCCN2S(=O)(=O)c2ccc3nc(-c4ccccc4)[nH]c3c2)c1 (stereo not drawn)	9%
47	CC(=O)OCC(=O)Nc1ccc(Cl)cc1Cl	-11%
48	CCCNC(=O)Cn1c(=O)n(CC2CCC(C(=O)NC)CC2)c(=O)c2sccc21 (stereo not drawn)	-1%
49	O=C(NN=Cc1ccc(N2CCOCC2)s1)c1ccc([N+](=O)[O-])cc1	-2%
50	C=CCn1c(SCC(=O)Nc2cc(C)on2)nnc1-c1ccccc1OC	-6%
51	Clc1ccccc1C1=CC(c2ccco2)n2ncnc2N1 (stereo not drawn)	5%
52	CC(C)c1ccc(Nc2cc(C(=O)NCCCN(C)Cc3ccccc3)c3ccccc3n2)cc1	9%
53	COc1ccccc1C(=O)NCCCn1cc(Br)c(C)n1	-2%
54	Cc1ccc(NC(=S)N(CCN2CCCCC2)Cc2ccco2)cc1Cl	-4%
55	COc1ccc(C(=O)NCCC2=CCCCC2)cc1	-9%
56	FC(F)(F)c1cnc(/C=C/Nc2ccccc2Cl)c(Cl)c1	-17%
57	COc1ccc(CCNC(=O)c2cc3c(=O)n4ccccc4nc3n(CCCN3CCOCC3)c2=N)cc1OC	11%
58	COc1cccc(-n2c(SCC(=O)NCCc3ccccc3)nnc2-c2ccoc2C)c1	2%
59	O=C(O)c1ccc(NC(=O)c2cccs2)cc1	3%
60	Cc1ccc(NC(=O)CN2C(=O)NC(C)(CCc3ccccc3)C2=O)cc1 (stereo not drawn)	24%
61	COc1cccc(OC)c1C(=O)NC(=S)Nc1ccc2c(c1)OCCO2	-8%
62	O=C(Nc1ccccc1C(=O)N1CCCCC1)NC1CCCCC1	-19%
63	O=C(Nc1cccc(-c2ccc(N3CCOCC3)nn2)c1)c1ccccc1Cl	-14%
64	CC(=O)c1c(C)[nH]c(C(=O)CN(C)CC(=O)Nc2ccccc2Cl)c1C	8%
65	CCOC(=O)CNc1nc(C(C)(C)C)nc2c1nnn2Cc1ccccc1Cl	4%
66	CCOc1ccc(S(=O)(=O)n2ccc(C)n2)cc1	-12%
67	CC(C)c1ccc(NS(=O)(=O)c2ccc3c(c2)oc(=O)n3C)cc1	7%
68	O=C(NCc1ccc(F)cc1)C(c1cccs1)N(C(=O)c1csnn1)C1CC1 (stereo not drawn)	4%
69	CC[C@H](C)[C@H](NC(=O)c1ccccc1)C(=O)NC(CC(=O)O)c1ccc(F)cc1 (stereo partly drawn)	2%
70	CCc1ccc([C@H]2C(C(=O)O)=C[C@@H](C(C)(C)C)N2S(=O)(=O)c2ccc(C)cc2)cc1	3%
71	Cc1ccc(S(=O)(=O)NCC(=O)N2CCN(c3ccccc3F)CC2)cc1	9%
72	Cc1ccc(NC(=O)CS(=O)CC(=O)Nc2ccccc2-c2ccc(C)o2)cc1 (stereo not drawn)	-13%
73	COc1cccc(NC(=S)N(CCCN2CCOCC2)Cc2cn(C)c3ccccc23)c1	-8%
74	Cc1ccc(CN2CCSc3ccc(C(=O)N4CCN(c5cc(C)ccc5C)CC4)cc32)cc1	-3%
75	CC1C(=O)Nc2ccccc2N1C(=O)c1ccc(O)cc1 (stereo not drawn)	-2%
76	Cc1ccccc1NC(=O)CNc1ccccc1N1CCCCC1	-3%
77	COc1ccc(Cn2cccc(NC(=O)Nc3ccc(C#N)cc3)c2=O)cc1	3%
78	CN(/N=C/c1ccc(Cl)cc1)c1ncc(Cl)cc1C(F)(F)F	-5%
79	C[C@H](CO)N1C[C@H](C)[C@@H](CN(C)Cc2ccccc2)Oc2c(NS(=O)(=O)c3cn(C)cn3)cccc2C1=O	17%
80	CC1CC(C)CN(S(=O)(=O)N2CCC(C(=O)NCCc3ccccc3)CC2)C1 (stereo not drawn)	4%
81	COc1ccc(S(=O)(=O)Nc2cccnc2)c(Cl)c1Cl	-18%
82	Cc1ccc(/C=C/c2nc3ccccc3[nH]2)o1	-7%
83	O=C(NC1CCCCC1)[C@@H]1CSC2c3ccccc3C(=O)N21 (stereo partly drawn)	1%
84	O=C(O)CSc1nccn1-c1cccc(Cl)c1	10%

Following part
no.	canonical_smiles	VDR inh
85	Cn1nc(CC(=O)Nc2ncc(Br)s2)c2ccccc2c1=O	2%
86	CN(CC(=O)NCCc1ccc(S(N)(=O)=O)cc1)S(=O)(=O)/C=C/c1ccccc1	9%
87	Nc1n[nH]c(N)c1N=Nc1ccc(Cl)cc1	18%
88	O=[N+]([O-])c1cccc(-c2cc(C(F)(F)F)n3nc(-c4ccccc4)cc3n2)c1	1%
89	O=[N+]([O-])c1ccccc1C=NN1CCCCCC1	?
90	CCc1cccc(NC(=O)c2ccc3c(c2)N(Cc2cccc(Cl)c2)C(=O)c2ccccc2S3=O)c1 (stereo not drawn)	4%
91	O=C(N/N=C\C1CC=CCC1)c1ccc(Br)o1 (stereo not drawn)	11%
92	CCOc1ccccc1-c1noc(CSc2nnc(-c3ccccc3)n2-c2cccc(C)c2)n1	16%
93	CCCN1C2CCCC1CC(NC(=O)c1ccccc1)C2 (stereo not drawn)	-2%
94	O=C(CN1C(=O)C(=O)c2ccccc21)NC1CCCCC1	-2%
95	CSc1ccccc1C(=O)Nc1ccc2c(c1)OCCO2	-10%
96	CN1CCN(/N=C2/C(=O)Nc3ccc([N+](=O)[O-])cc32)CC1	-13%
97	Cn1cnnc1SCC(=O)NC1CC1	5%
98	CCN(Cc1ccccc1)C(=O)c1ccc(C)c(S(=O)(=O)N2CCCCC2)c1	2%
99	CCCCN(CCCC)CCCNC(=O)C1CC(c2cc(C(F)(F)F)cc(C(F)(F)F)c2)=NO1 (stereo not drawn)	-4%
100	COc1ccc(C)cc1NS(=O)(=O)c1cccc2nonc12	-19%
101	CCC(C)c1ccc(S(=O)(=O)N2CCN(CC(O)COCC3CCCO3)CC2)cc1 (stereo not drawn)	-15%
102	CC(=O)c1ccccc1NC(=O)CN1C(=O)NC2(CCCCCCC2)C1=O	14%
103	O=C(CSc1nccn1-c1ccccc1)NCc1ccc(F)cc1	-10%
104	CC(C)C[C@H]1CN=C(Nc2ccccc2)N1CC(C)C	-6%
105	Oc1ccccc1C1CC(c2cccs2)=NC(c2ccc(Cl)cc2)N1 (stereo not drawn)	?
106	COc1ccc2oc(C(=O)CCC(=O)O)c(N)c2c1	-1%
107	CC(=O)Nc1ccc(S(=O)(=O)Nc2ccccc2C(=O)N2CCOCC2)cc1	9%
108	Cc1cc(C=O)c(C)n1-c1ccc(NC2CCCC2)c([N+](=O)[O-])c1	-8%
109	CN(C(=O)Cc1ccccc1)n1cnnc1	4%
110	O=C(CCc1nnc(CCCCc2ccccc2)o1)N1CCCCC1CCO (stereo not drawn)	-10%
111	Cc1cc(C)nc(Nc2nc(-c3ccccc3)cs2)n1	-6%
112	CCCCNC(=O)N1CCN(Cc2ccc(F)cc2)CC1	-11%
113	CC(C)(C)c1ccccc1NC(=O)c1ccco1	13%
114	CCC(=O)NCCc1nc2cc(NC(=O)c3cccc(Br)c3)ccc2n1C	8%
115	CCOCCCNCC(=O)Nc1ccccc1N1CCOCC1	4%
116	COc1cc2cc(CN(CCc3cccc(C)c3)C(=S)NCCCN(C)C)c(=O)[nH]c2cc1OC	-11%
117	CN1CCN(c2ccccc2NC(=O)c2ccc(F)cc2)CC1	-9%
118	COc1ccc(C(=O)NCC(=O)OCC(=O)Nc2cc([N+](=O)[O-])ccc2F)cc1	?
119	Cc1cc(C)c(S(=O)(=O)NCC(c2ccco2)S(=O)(=O)c2cccs2)c(C)c1 (stereo not drawn)	-8%
120	COC(=O)CSC1=C(C#N)C(c2ccc(C(C)C)cc2)CC(=O)N1 (stereo not drawn)	-4%
121	Cc1ccccc1Cn1c(=O)n(Cc2ccco2)c(=O)c2sc3ccccc3c21	-21%

Bioassay records as filed in PubChem.

This is a subset; the hit share may differ from the screen's.
